NPYLR7 agonist = agonists of mosquito NPYLR7 receptor, primary screen, cell-based, Aedes aegypti, calcium fluorescence, mosquito biting behavior | HEK293T NPYLR7/Galpha15, GCaMP6s calcium fluorescence | actives 0.15% (n = 270,000) | activation, % at 10 µM | AID 1259423, 2018; in the data active = activation above about 40%;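 also: 0% = vehicle and 100% = reference agonist at the receptor; some compounds past the cut are filed as inactive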
NPYLR7 agonist max-min = second read-out of NPYLR7 agonist, no call of its own (marks repeat the call); activation, %; measured here: Max-Min RFU normalised activation; some inactives read as strong as hits;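 span of the calcium signal over five minutes; 0% = vehicle and 100% = native peptide agonist; compound fluorescence can raise it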
Numbers without * were called inactive; & = joins results of further samples. Not all compounds are listed (hit frequency here may not be typical).

molecule | NPYLR7 agonist | NPYLR7 agonist max-min
CC(C)N1CCN(Cc2c[nH]c3ccccc23)CC1CCO (stereo not given) | -5 | -4
Cc1ccccc1C1SCC(=O)N(CC(=O)O)c2c1c(-c1ccccc1)nn2-c1ccccc1C (stereo not given) | -3 | -7
O=P1(N(CCCl)CCCl)NCCCO1 (stereo not given) | -6&0&-11&0 | -9&-7&-12&1
CC(C)(C#N)O[C@@H]1O[C@H](CO)[C@@H](O)[C@H](O)[C@H]1O | -7 | -6
C=CCN1C[C@@H](C)N([C@H](c2ccc(C(=O)N(CC)CC)cc2)c2cccc(OC)c2)C[C@@H]1C | -1 | -9
Oc1ccc2c3c1O[C@H]1c4[nH]c5ccccc5c4C[C@@]4(O)C(C2)N(CC2CC2)CCC314 (stereo not given in full) | 1 | -36
Oc1ccc(C=NNP(=S)(c2ccccc2)c2ccccc2)c(O)c1O | 4 | 4
O=C(NC1CCN2CCCCC12)c1cc(-c2cccc(F)c2)no1 (stereo not given) | -14 | -16
Cc1ccc(C)c(CN2CCN(c3ccc(O)cc3)CC2)c1 | 10 | 9
Cc1ccc(C)c(-n2cc(C3=CCN(Cc4noc(C5CC5)n4)CC3)cn2)c1 | 2 | 1
O=C(Nc1ccccc1C(F)(F)F)c1cccn(Cc2ccccc2Cl)c1=O | 14 | 6
CCCCN(CC)c1c([N+](=O)[O-])cc(C(F)(F)F)cc1[N+](=O)[O-] | -5 | -12
Cc1cccc2nc(CNC(=O)C3CC4(CCNCC4)CN3)cn12 (stereo not given) | 21 | 6
CCCC1NC2(C(=O)NC(=O)NC2=O)C2C(=O)N(c3cccc4ccccc34)C(=O)C12 (stereo not given) | -1 | -4
COc1ccccc1[C@@H]1CN(C(=O)NCc2ccco2)[C@@H]2C3CCN(CC3)[C@@H]21 | 3 | 1
Cc1cc(Cl)ccc1C(=O)C1CCCN(Cc2ccon2)C1 (stereo not given) | 1 | -2
CCCCCc1ccc(C(=O)Nc2ccc3[nH]cc(CCN4CCCC4)c3c2)cc1 | 5 | -1
Nc1ncn[nH]1 | 0 | -6
CCn1cc(NC(=O)c2cn(CC(C)C)c3ccccc23)ccc1=O | -22 | -24
CCCCCCCOc1ccc(C(=O)N2CCN(CCOC(c3ccccc3)c3ccccc3)CC2)cc1 | 27 | 16
COc1ccc2c(c1)c(C(=O)Nc1ccon1)nn2Cc1ccc(S(=O)(=O)N(C)OC)cc1 | 10 | 17
Cc1cc(CC(C)NC2CCC3(CCNCC3)CC2)n[nH]1 (stereo not given) | 11 | 7
CN(C)C(=O)c1ccc(-c2cccc3c2CCNC3)o1 | 4 | 1
CC(Sc1n[nH]c(C2CC2)n1)C(=O)Nc1ccc(C#N)c(Cl)c1 (stereo not given) | 5 | 2
CCOC(=O)[C@@H]1[C@H]2c3ccccc3N(CCOC)C(=O)[C@H]2N(C(=O)c2ccno2)[C@@H]1c1ccccc1 | 23 | 21
CS(=O)(=O)c1ccc(S(=O)(=O)N2CCN(CCOC(c3ccc(Cl)cc3)c3ccc(Cl)cc3)CC2)cc1 | 5 | 2
O=C1NC(=O)C2=Cc3ccc(O)cc3OC2(O)N1 (stereo not given) | 193* | 195*
Cc1cc(=O)n(CC(=O)N2CC[C@H]3CNC[C@H]32)c2ccccc12 | 1 | -1
CCOC(=O)c1c(CN2CCCCC2)n(Cc2ccccc2)c2cc(Br)c(O)cc12 | 2 | 1
CCOC(=O)NC(C(=O)NC(C)Cc1ccccc1Cl)C(C)C (stereo not given) | 4 | -1
O=[N+]([O-])c1ccc2oc3ccccc3c2c1 | 9 | 5
C[C@@H](N)Cc1cnc[nH]1 | -2 | -26
O=C1NCCN2CCN(C3CCN(Cc4cccnc4)CC3)CC12 (stereo not given) | 4 | 3
CS(=O)(=O)c1ccccc1S(=O)(=O)N1CCN(CCOC(c2ccccc2)c2ccccc2)CC1 | 24 | 23
c1ccc2c(c1)CCCCC21CCCNC1 (stereo not given) | 7 | 3
Cc1ccccc1Cn1cc(C(=O)NCC[C@@H]2C[C@@H]3C=C[C@H]2C3)nn1 | 8 | 5
CSc1ccccc1C(=O)C1CCCN(CC#Cc2ccccc2)C1 (stereo not given) | 10 | 2
COc1ccccc1[C@H]1CN(c2nccnc2C)[C@@H]2C3CCN(CC3)[C@H]12 | 26 | 13
COc1ccc(CCN(Cc2ccc(C)o2)C(=O)CN(CCN2CCOCC2)C(=O)Cc2ccccc2)cc1OC | -4 | -3
COc1ccc(CC(=O)N2CCN(CCOC(c3ccccc3)c3ccccc3)CC2)cc1 | -4 | 9

(further entries)
Order of values – NPYLR7 agonist, NPYLR7 agonist max-min
CNNC
 : -7, -12
O=c1c2ccccc2nc(CCl)n1-c1ccc(F)cc1
 : -2, -3
ClC1=C(Cl)C2(Cl)C3C4C=CC(C4)C3C1(Cl)C2(Cl)Cl (stereo not given)
 : -6, -9
CCOC(=O)CSCCOc1ccc(C=C2C(=O)NC(=O)NC2=O)cc1OC
 : -4, -7
CC(C)N1C2CCC1CN(C(=O)c1cc[nH]c(=O)c1)CC2 (stereo not given)
 : 0, 0
O=c1[nH]c(O)c(C2CCCCC2)c(=O)[nH]1
 : 2, 45
CC1CN=C(Nc2ccc(C(C)C)cc2)S1 (stereo not given)
 : 6, 4
Cc1cc(C=C(C#N)C#N)c(C)n1C1CCCC1
 : 2, 7
CCc1cnc(C)nc1N1CCC2(CC1)CN(C)CCN2C
 : 29, 20
CC1=NCCc2c1[nH]c1cc(O)ccc21
 : 65*, 56*
O=C(CN1CN(c2ccccc2)C2(CCNCC2)C1=O)NCc1ccc2c(c1)OCO2
 : -1, -11
CC(C)N(CC(=O)Nc1nc(CC(=O)N(CCN(C)C)Cc2ccccc2)cs1)C(=O)c1ccccc1
 : 24, 25
O=C(Nc1ccc(Cl)c([N+](=O)[O-])c1)c1cccn(Cc2ccccc2)c1=O
 : 13, 6
COc1ccc2c(c1)c(C(=O)Nc1ccc3c(c1)OCO3)nn2Cc1ccc(OCc2ccccc2)cc1
 : -3, 25
Fc1ccc(-n2c(Cl)nnc2C2CC2)cc1
 : 11, 6
NC(=O)CN1CC(O)CC1=O (stereo not given)
 : 4, -33
CCOC(=O)[C@H]1CN(S(=O)(=O)Cc2ccccc2)[C@]2(C)C(=O)N(CC3CC3)c3ccccc3[C@H]12
 : 23, 25
O=C(O)C12CCCC1CN(CC1CC1)C2 (stereo not given)
 : -2, -7
COc1cccc(CC(=O)N2CCN([C@H]3C[C@H]4C[C@@H](c5ccccc5)OC[C@@]4(C)C3)CC2)c1
 : -2, 2
O=C1NC(=S)NC(=O)C1=Cc1ccc(N(CCCl)CCCl)cc1
 : 6, 4
O=[N+]([O-])c1ccc([As](=O)(O)O)cc1
 : -10, 7
COc1ccc(-n2nc(C(C)(C)C)c3c2N(CC(N)=O)C(=O)CSC3c2cccs2)cc1 (stereo not given)
 : 1, 6
COc1ccc(C=C2C(=O)NC(=S)NC2=O)cc1
 : 20&-6, 10&-15
CC(C(=O)Nc1ccc(C#N)c(Cl)c1)n1nc(-c2ccco2)oc1=O (stereo not given)
 : 19, 11
O=C(Cc1ccc(F)cc1)N(CCN1CCOCC1)c1nc2c(F)cccc2s1
 : 13, 10
COc1cc(Cl)cc(CN2CCN(CC3CC3)CC2)c1OC
 : 6, 5
O=C(Nc1ccc(F)cc1)C(C1CCCC1)N1CCN(C(=O)COc2ccc(Cl)cc2)CC1 (stereo not given)
 : -19, -16
O=C(Nc1ccc2c(C(F)(F)F)cc(=O)oc2c1)c1nc2ncccn2n1
 : 0, 9
COc1cc(NC(=O)N2CCN(CCOC(c3ccccc3)c3ccc(F)c(F)c3)CC2)cc(OC)c1OC (stereo not given)
 : 5, 1
NC(=Nc1ccc(NC(=O)C2CCCCC2)cc1)N[N+](=O)[O-]
 : -11, -17
C=CCN1C[C@H](C)N([C@H](c2ccc(C(=O)N(CC)CC)cc2)c2cccc(O)c2)C[C@H]1C
 : 6, -8
O=C(NCc1ccccc1OC(F)(F)F)c1cn(CCN2CCOCC2)nn1
 : 15, 5
Cc1ccc(C=C2C(=O)N(C)C(=O)N(C)C2=O)s1
 : 7, 5
Clc1ccc(-c2nc(CN3CC=C(c4ccccc4)CC3)cs2)cc1
 : 21, 26
N#CC1C(=N)Oc2c(c(=O)oc3ccccc23)C1c1cccc(Cl)c1 (stereo not given)
 : 4, -1
Cc1cc(Cl)ccc1C(=O)C1CCCN(CCO)C1 (stereo not given)
 : 4, 1
O[C@H]1C[C@@H]2CN(Cc3cccn3-c3ccc(Cl)cn3)C[C@@H]2C[C@@H]1O
 : -1, 7
CCOC(=O)C1CC1CN1CCN(CCOC(c2ccccc2)c2cccc(C(F)(F)F)c2)CC1 (stereo not given)
 : 19, 15
c1ccc(CCN(Cc2cccnc2)Cc2ccsc2)cc1
 : 10, 2
O=C(Cc1c(F)cccc1F)N1CCN(Cc2cccc(-c3noc(-c4ccccc4)n3)c2)CC1
 : 4, 1

Five records picked at random from those above, as already listed:
Order of values – NPYLR7 agonist, NPYLR7 agonist max-min
O[C@H]1C[C@@H]2CN(Cc3cccn3-c3ccc(Cl)cn3)C[C@@H]2C[C@@H]1O
 : -1, 7
Cc1cc(Cl)ccc1C(=O)C1CCCN(CCO)C1 (stereo not given)
 : 4, 1
N#CC1C(=N)Oc2c(c(=O)oc3ccccc23)C1c1cccc(Cl)c1 (stereo not given)
 : 4, -1
c1ccc(CCN(Cc2cccnc2)Cc2ccsc2)cc1
 : 10, 2
Clc1ccc(-c2nc(CN3CC=C(c4ccccc4)CC3)cs2)cc1
 : 21, 26

An excerpt from above in order of SMILES length, ascending.
Order of values – NPYLR7 agonist, NPYLR7 agonist max-min
C[C@@H](N)Cc1cnc[nH]1
 : -2, -26
Cc1cc(Cl)ccc1C(=O)C1CCCN(Cc2ccon2)C1 (stereo not given)
 : 1, -2
ClC1=C(Cl)C2(Cl)C3C4C=CC(C4)C3C1(Cl)C2(Cl)Cl (stereo not given)
 : -6, -9
Cc1ccccc1C1SCC(=O)N(CC(=O)O)c2c1c(-c1ccccc1)nn2-c1ccccc1C (stereo not given)
 : -3, -7

(cont.)
Order of values – NPYLR7 agonist, NPYLR7 agonist max-min
COC(=O)/C=C/C(=O)N[C@@H]1CC[C@@]2(O)[C@H]3Cc4ccc(O)c5c4[C@@]2(CCN3CC2CC2)[C@H]1O5
 : -5, -8
C[C@H]1C[C@@H](O)[C@]2(O)[C@@]13CC(=O)OC[C@@]2(C)[C@](C)(O)C(=O)C3
 : -7, -16
Cc1ccccc1OCC(=O)N1CCN(Cc2ccc(-c3noc(-c4ccco4)n3)cc2)CC1
 : 1, -2
Cc1ccccc1OCC(=O)N1CCN(Cc2ccc(-c3noc(C4CCCC4)n3)cc2)CC1
 : 5, 1
COc1ccccc1NC(=O)N1CCN(CCOC(c2ccccc2)c2cccc(C(F)(F)F)c2)CC1 (stereo not given)
 : 23, 24
O=C1COc2cc([N+](=O)[O-])c(Cl)cc2N1Cc1ccccc1
 : -3, -8
C[C@]12CC(=CO)C(=O)C[C@@H]1CC[C@@H]1[C@@H]2CC[C@@]2(C)[C@H]1CC[C@]2(C)O
 : -9, -14
c1nc2c(c(N3CCN4CCCC4C3)n1)CCNC2 (stereo not given)
 : -2, -3
Cc1ccc(S(=O)(=O)N2CCN(CCOC(c3ccccc3)c3ccc(F)c(F)c3)CC2)cc1Cl (stereo not given)
 : 5, 7
O=C(NCCCN1CCCC1=O)c1nn(Cc2ccc(OC(F)F)cc2)c2ccccc12
 : 10, 14
C#CCN(C)S(=O)(=O)c1ccc(Cn2nc(C(=O)N(C)CCCC)c3ccccc32)cc1
 : -4, 8
COc1ccc2[nH]c(C)c(CCNCc3ccccn3)c2c1
 : -7, 0
CN(C)C(=O)Oc1c(I)cc(Cl)c2cccnc12
 : 3, -2
CCOC(=O)[C@@H]1C[C@H](C(=O)c2ccccc2)N2N=Cc3ccccc3C12 (stereo not given in full)
 : 2, 20
COc1ccc(-c2[nH]ncc2CNC(C)Cc2cccc(C)n2)cc1F (stereo not given)
 : 1, 1
CCc1cc(C(=O)N2CCN3CCN(C)C(=O)C3C2)no1 (stereo not given)
 : 1, 0
CC(=O)Nc1ccc(CN(C)C(C)Cc2ccccn2)cc1 (stereo not given)
 : 24, 13
CCc1nn2c(=O)cc(CN3CCCC4(CNC(=O)O4)C3)nc2s1 (stereo not given)
 : 5, 4
C[C@]12COC(=O)C[C@@H]1CC[C@@H]1[C@@H]2CC[C@@]2(C)[C@H]1CC[C@]2(C)O
 : -15, -28
N=C1c2ccccc2CN1c1ccc(F)c(Cl)c1
 : 9, 7
Cc1nc(-c2cccs2)cc([C@H]2CN3CC[C@H]2C[C@@H]3CNC(=O)C2CCC2)n1
 : -10, -16
CCOC(=O)CCCC(=O)Nc1ccc2[nH]cc(CCN3CCOCC3)c2c1
 : 24, 21
CCOC(=O)[C@H]1CN(C(=O)/C=C/c2ccccc2)[C@]2(C)C(=O)N(C)c3ccccc3[C@H]12
 : 12, 24
Cc1ccc(NC2=NCC(C)S2)cc1 (stereo not given)
 : -10, -18
CS(=O)(=O)c1ccccc1S(=O)(=O)N1CCN(CCOC(c2ccccc2)c2cccc(C(F)(F)F)c2)CC1 (stereo not given)
 : 26, 26
CCCN1C2CCC1CC(C(=O)NC(C)(CC)CC)C2 (stereo not given)
 : 8, 7
CCOC(=O)c1ccc(CN2CCC3(CC2)C(=O)Nc2ccccc23)o1
 : 3, 2
CCNC(=O)C(C1CCCC1)N1CCN(C(=O)Cc2ccc(F)cc2)CC1 (stereo not given)
 : -4, 18
Cc1c(C(=O)N2CC[C@@H]3CC[C@H](C2)N3C)cnn1-c1ccccn1
 : 1, 1

Screening data from PubChem BioAssay.
